Ecoli growth: inhibitors of Escherichia coli growth | OD600, 23 h; hits give low values | OD600 absorbance (concentration not given with the values) | 330,000 compounds, 0.21% hits;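 active = OD600 absorbance below the run mean of sample wells minus 3.6 SD, in any replicate, cut at about 0.56 in these data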;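 note: stock transfer was 300 nL into about 60 µL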
Vif TR-FRET: inhibitors of Vif binding to APOBEC3G peptide, primary screen, biochemical, TR-FRET, GST-Vif 1-94, biotin-A3G peptide, dose response retest (AID 1117319). 260,000 compounds, 0.57% hits. TR-FRET GST-Vif / biotin-A3G peptide binding; higher % means a stronger effect; test concentration not given here; strong numbers were not always called active. one-dose inhibition, %; IC50 in µM for titrated hits;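 active = above the screen mean plus three standard deviations and confirmed in dose response; inconclusive = results disagree or hit not tested in dose response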;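 note: Vif residues 1-94 fused to GST binding biotinylated APOBEC3G peptide 110-148; 0% = full assay without inhibitor and 100% = GST in place of GST-Vif; retest series ran down from 100 µM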
Bfl-1 A1 inh: inhibitors of the anti-apoptotic protein A1, read as caspase activation. MEF A1-2A-BIM cells, Caspase-Glo 3/7 luminescence, 3 h; percent of clofoctol response, vehicle zero. caspase activation, % (test concentration not listed). 330,000 compounds, 0.066% hits;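 active = over half of replicate activation scores above 10%, or exactly half above 10 with the replicate mean above 10; inconclusive = replicate mean below 10 yet half the replicates above 10; inactive = over half of replicates below 10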;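 note: wells of about 30 µL received 50 nL stock; many hits fall short of the cut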
LANA-H2B inh: blocks KSHV LANA binding to histone H2A/H2B | Q9QR71 | AID 2629 | cell-free LANA-H2A/H2B peptide, fluorescence polarization | inhibition, % (test concentration not listed) | 320,000 compounds, 0.6% hits; in the data active = inhibition mostly above about 10%, no sharp cut-off; inactive = mostly below about 6.7%;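 note: stock transfer was 7.5 nL into about 10 µL; 0% = median of vehicle wells and 100% = median of positive control wells; one replicate is shown; the record names a cut of 25% in any replicate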
B2AR ag: human beta-2 adrenergic receptor agonism by FAP. P07550. Am2.2-beta2AR cells, FAP receptor internalization, flow cytometry; reference of the scale not given here. response, % (test concentration not listed). 340,000 compounds, 0.43% hits. AID 504454;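 active = response above a set limit, near 3 SD of response in nonfluorescent compounds, cut at about 42% in these data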;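 note: stock transfer was 100 nL into about 11 µL; a reference agonist was the positive control; negative values mostly stem from fluorescent compounds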
Target sequence (P07550 whole entry, looked up): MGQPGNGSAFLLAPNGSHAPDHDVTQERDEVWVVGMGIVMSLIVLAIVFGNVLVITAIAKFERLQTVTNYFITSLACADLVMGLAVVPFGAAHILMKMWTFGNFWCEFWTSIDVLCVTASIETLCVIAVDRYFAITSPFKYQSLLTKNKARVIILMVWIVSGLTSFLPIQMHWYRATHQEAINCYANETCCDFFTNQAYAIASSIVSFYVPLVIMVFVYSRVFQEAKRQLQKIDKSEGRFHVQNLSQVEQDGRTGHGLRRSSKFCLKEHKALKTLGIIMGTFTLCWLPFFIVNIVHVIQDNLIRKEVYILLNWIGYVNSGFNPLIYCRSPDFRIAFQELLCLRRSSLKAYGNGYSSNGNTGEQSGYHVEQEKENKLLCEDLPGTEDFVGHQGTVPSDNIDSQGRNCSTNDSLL
HNF4A DNA FP: change in binding of human HNF4 alpha to DNA | P41235 | HNF4a-FITC DNA binding, fluorescence polarization, 1 h | activity change, % at 10 µM | 360,000 compounds, 0.3% hits; in the data active = activity change above about 30%, passing the limit was not always enough;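 note: controls were the assay level and a saturating level of protein; the project sought stronger binding though the title names inhibitors; some compounds called inactive have numbers as strong as hits; positive values seem to mean higher polarization but the record does not say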
Target sequence (P41235 whole entry, looked up): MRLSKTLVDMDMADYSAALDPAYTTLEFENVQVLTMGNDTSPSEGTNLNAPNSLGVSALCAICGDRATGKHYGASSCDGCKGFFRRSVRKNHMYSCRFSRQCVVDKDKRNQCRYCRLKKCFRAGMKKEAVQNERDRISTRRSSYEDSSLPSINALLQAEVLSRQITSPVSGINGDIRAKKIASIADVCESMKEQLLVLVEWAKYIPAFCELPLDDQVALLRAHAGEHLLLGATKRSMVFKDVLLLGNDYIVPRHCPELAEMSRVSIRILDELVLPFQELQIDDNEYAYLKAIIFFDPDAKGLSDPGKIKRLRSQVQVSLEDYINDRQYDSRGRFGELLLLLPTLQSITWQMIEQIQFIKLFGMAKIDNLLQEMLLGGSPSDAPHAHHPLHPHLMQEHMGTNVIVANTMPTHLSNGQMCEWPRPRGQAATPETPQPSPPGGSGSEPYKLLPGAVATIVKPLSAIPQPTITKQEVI
UCH37 DUB inh: inhibitors of human deubiquitinating enzyme UCH37; purified proteasome/UCH37, Ub-AMC cleavage fluorescence; inhibition, % (test concentration not listed); 330,000 compounds, 0.33% hits; AID 588478;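 active = mean of two replicates above 20%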;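 note: 0% = compound-free wells with enzyme and 100% = wells lacking proteasome; stock transfer was 100 nL into about 20 µL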
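assay system = human UCH37 enzyme supplied as purified proteasome complex | amount = proteasome at 0.15 nM in the dispensed enzyme solution | schedule = 30 min compound-proteasome preincubation then 25 min substrate reaction, room temperature | measured by = fluorescence, ex 355 nm, em 460 nm | benchmarks = no-proteasome wells (full inhibition) and compound-free wells (no inhibition)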
Numbers without * were called inactive; u = inconclusive; x = not tested or not shown.

SMILES	Ecoli growth	Vif TR-FRET	Bfl-1 A1 inh	LANA-H2B inh	B2AR ag	HNF4A DNA FP	UCH37 DUB inh
CN(C)c1ccc(NC(=S)N(CCc2ccccc2)C2CC(=O)N(c3c(Cl)cccc3Cl)C2=O)cc1 (stereo not given)	0.76	15%	-0.7	-0.7	5	1.6	-0.4
CC(C)CC1NC2(C(=O)N(C)c3ccccc32)C2C(=O)N(C(C)C)C(=O)C12 (stereo not given)	0.74	u	0.3	1.2	-4	-1.7	5.0
O=S(=O)(Nc1cccnc1Cl)c1ccc2c(c1)OCCO2	0.72	3%	0.7	3.1	0	0.7	3.2
CCCCn1c(SCC(=O)NC2CCS(=O)(=O)C2)nc2cc(S(N)(=O)=O)ccc21 (stereo not given)	0.71	4%	0.3	5.2	0	3.6	-0.6
Cn1nc(C(F)(F)F)c(/C=N/OC(=O)c2ccccc2)c1SCc1ccccc1Cl	x	25%	0.7	5.0	8	-0.4	x
CC(NC(=O)c1ccco1)C(=O)N1CC=C(c2ccccc2)CC1 (stereo not given)	0.69	x	1.2	7.9	-18	-3.0	1.3
O=C(Nc1ccccc1)N(c1ccccc1)C1C=CS(=O)(=O)C1 (stereo not given)	0.71	x	0.9	5.9	-3	1.1	3.8
COCCn1c(=O)[nH]c(=O)c2cc(C(=O)c3cc(Cl)ccc3O)cnc21	0.63	x	-0.5	-4.6	10	10	-11
CCOC(=O)c1c(C)[nH]c(C=O)c1Cc1cccc(Cl)c1	0.68	-4%	0.0	0.4	0	-0.5	1.8
CC(C)CN(C(=O)COC(=O)c1ccc2c(c1)OCCO2)c1c(N)n(Cc2ccccc2)c(=O)[nH]c1=O	0.68	-1%	0.2	-4.7	-6	5.0	-0.3
Brc1ccc(CN2CC[C@H]3C=CCc4cccc(c43)C2)cc1	x	x	0.9	-4.6	-1	-0.5	5.4
CCCC(=O)Nc1ccc(OCC(=O)OC)cc1	0.73	4%	0.6	-3.4	6	-0.9	3.6
O=C(CSc1nnc(Cc2ccccc2)o1)Nc1cccc(F)c1	0.64	-3%	0.0	-0.8	-10	-2.7	1.2
S=C(NCCc1ccccc1)N/N=C/c1cccs1	x	x	0.2	-3.9	-3	-4.2	x
COc1ccc(CNC(=O)C2CCN(S(=O)(=O)N3CCCC3)CC2)c(OC)c1	x	x	0.5	-3.5	-6	-0.9	x
O=C(CSc1ccncc1)Nc1ccc2ccccc2c1	0.69	-11%	0.3	-0.1	1	12	1.3
Cc1ccc(C)c(N2CN(Cc3cccnc3)CNC2=S)c1	0.7	u	-0.6	-0.8	14	0.3	4.8
COc1ccc(OC)c(Nc2nc(N(C)c3ccccc3)nc(N)c2[N+](=O)[O-])c1	x	x	-0.4	-0.3	16	-1.6	x
CN(C)c1ccc(C2CC(c3cccc(NS(C)(=O)=O)c3)=NN2C(=O)c2ccccc2)cc1 (stereo not given)	0.69	3%	-0.8	6.7	-13	-0.2	-0.2
CCOC(=O)C(C(=O)OCC)C1N=C(N)N=C2Oc3ccccc3N21 (stereo not given)	0.65	2%	-2.3	-2.6	-1	-2.5	-202
COc1ccccc1N(CCC#N)C(=O)COC(=O)CCC(=O)c1ccc(F)cc1	0.68	-15%	-0.8	7.3	-1	3.8	-0.3
CC(C)CCNC(=S)NC1CCCC1	0.73	6%	-0.4	-3.7	0	1.3	5.3
Cc1nccn1CCCN1C(=O)OC2(CCCCC2)C1(C)O (stereo not given)	0.74	5%	-0.8	-6.5	0	-1.0	4.0
Cc1ccccc1Cn1c2ccccc2c2cn[nH]c(=O)c21	0.69	22%	1.5	1.6	-7	-0.7	0.4
O=C(Nc1ccccc1OC(F)F)c1ccc(Br)o1	0.73	-2%	0.3	-1.9	-7	-0.7	1.5
COc1ccccc1N1CCN(C(=O)c2ccc(Cl)c(S(=O)(=O)N3CCCC3)c2)CC1	0.71	-9%	-1.0	2.9	5	-4.4	1.8
CCCN1CCC(NC(=O)C2CCN(C(C)=O)CC2)CC1	0.63	x	0.5	-2.7	4	2.6	1.2
CCc1nnc(NC(=O)CSc2nc(-c3ccccc3)nc3ccccc23)s1	0.71	x	-0.6	1.7	-11	-2.7	-1.2
CNc1nc(SC)nc(N(C#N)CC(=O)OC)n1	0.7	x	-0.6	0.8	3	-3.0	2.2
CSc1ncc2c(n1)-c1cc(C)ccc1SC2	0.75	-9%	0.1	3.9	1	-0.8	2.0

Entries of single compounds, looked up by structure. Screens in order: Ecoli growth, Vif TR-FRET, Bfl-1 A1 inh, LANA-H2B inh, B2AR ag, HNF4A DNA FP, UCH37 DUB inh
CCc1nnc(NC(=O)CSc2nc(-c3ccccc3)nc3ccccc23)s1 reads 0.71, x, -0.6, 1.7, -11, -2.7, -1.2
Cc1ccccc1Cn1c2ccccc2c2cn[nH]c(=O)c21 reads 0.69, 22%, 1.5, 1.6, -7, -0.7, 0.4
Cc1nccn1CCCN1C(=O)OC2(CCCCC2)C1(C)O (stereo not given) reads 0.74, 5%, -0.8, -6.5, 0, -1.0, 4.0

Remaining list, next part:
SMILES	Ecoli growth	Vif TR-FRET	Bfl-1 A1 inh	LANA-H2B inh	B2AR ag	HNF4A DNA FP	UCH37 DUB inh
CCSc1ccccc1C(=O)NCCCn1ccnc1	0.68	1%	0.5	-2.2	-5	-5.5	4.9
O=C(COc1ccc(Br)cc1Cl)NC(=S)N1CCc2ccccc21	0.71	18%	-0.5	0.1	-4	3.0	0.6
O=C(COC(=O)/C=C/c1ccc(S(=O)(=O)N2CCOCC2)cc1)NCc1ccc2c(c1)OCO2	0.66	-3%	0.4	2.6	-9	2.8	2.4
N#Cc1ccccc1N/C=C/C(=O)c1ccc(Cl)cc1	0.7	x	-5.7	0.0	-4	6.2	3.1
CNc1c(NS(=O)(=O)c2cc(Cl)ccc2OC)c(=O)oc2ccccc12	0.71	x	0.1	-3.7	-13	1.5	4.8
Cc1onc(-c2c(Cl)cccc2Cl)c1C(=O)N=C(N)N1CCCC1	0.64	x	0.9	2.0	-1	-7.0	4.4
COc1ccc(C(=O)Nc2ccccc2)cc1S(=O)(=O)NCc1ccco1	0.65	x	1.0	0.2	-7	1.1	2.0
N#CCCN(C(=O)COC(=O)c1ccc2ccccc2n1)c1ccccc1	0.7	x	-0.7	-0.1	2	3.3	1.7
CC(=O)c1cccc(NC(=O)c2ccc(N(C)S(C)(=O)=O)cc2)c1	0.67	-6%	-2.6	4.8	0	0.7	1.1
OCCN(Cc1ccccc1)Cc1ccc(F)c(F)c1	0.62	-1%	-0.8	0.7	7	0.5	-1.6
CCCCC1=CC2=C(c3ccco3)C(=O)C(C)(OC(=O)c3ccc(OC)cc3)C(=O)C2=CN1C(CO)CO (stereo not given)	0.64	x	-1.1	1.3	1	4.2	3.5
Cc1ccc(SCCC(=O)Nc2nccs2)cc1	0.68	-9%	-0.2	1.7	2	6.7	3.8
COc1ccc(OC(=O)c2cccc(S(=O)(=O)N3CC(C)OC(C)C3)c2)cc1 (stereo not given)	0.72	-10%	x	x	1	-2.9	4.4
COC(=O)c1ccccc1NC(=O)c1ccccc1SC	0.76	17%	-0.1	2.9	6	1.0	0.7
COc1ccccc1NC(=O)c1c(C)nc2ccccc2c1C(=O)O	0.67	4%	1.3	-0.9	1	3.2	0.7
COc1cc(C(=O)Nc2nnc(C(F)(F)F)s2)c([N+](=O)[O-])cc1OC	0.71	4%	0.3	9.2	0	-1.6	4.7
O=C1c2ccccc2-c2cccc(C(=O)N3CCN(C(=O)c4ccccc4)CC3)c21	0.71	1%	-0.2	-5.1	-18	-1.5	1.8
O=C(CCc1ccccc1)NNC(=O)C1CCCCC1	0.67	-5%	0.3	1.2	5	-3.8	2.1
Cc1cc2c(n1-c1ccc(Cl)cc1)CC(C)(C)CC2=O	0.67	-6%	-0.2	-1.9	-13	1.3	2.4
N#C/C(=N\Nc1ccc(Cl)c(Cl)c1)C(=O)C1CC1	x	24%	-6.9	0.4	16	-3.7	x
N#CCNC(=O)C1CC(=O)N(CCc2ccc(F)cc2)C1 (stereo not given)	0.66	x	0.0	6.9	-6	-2.9	2.1
O=C(N/N=C\c1ccc(Cl)s1)c1ccc(Cn2cccn2)o1	x	-4%	0.8	5.8	0	-3.7	x
CCOC(=O)c1ccc(CNCc2ccc(C)cc2)cc1	0.65	8%	-0.5	5.9	6	-0.2	4.9
CCc1nnc(NC(=O)CN2CCOCC2)s1	0.65	-2%	0.1	0.4	-1	1.2	-0.1
COCCCN1C(=O)C(=O)/C(=C(/O)c2ccc(S(=O)(=O)N3CCOCC3)cc2)C1c1ccc(C(C)C)cc1 (stereo not given)	0.68	x	0.8	4.3	-1	-0.1	17
COc1cc(C(C)=O)ccc1COc1ccc(C(=O)OCC(=O)NC(C)(C)C)cc1OC	0.69	21%	1.0	2.4	-14	0.4	3.6
CCN1C(=O)[C@H]2[C@@H](c3ccc(C)cc3)N3C(=O)N(c4ccccc4)C(=O)[C@@]3(CC)[C@H]2C1=O	x	x	-0.6	0.0	1	-5.5	4.6
C(=N/Nc1nccs1)/c1cccnc1	x	1%	0.7	-1.3	-4	4.2	x
Cc1cc(S(=O)(=O)N2CCOCC2)ccc1OCC(=O)Nc1ccc(Br)cc1F	0.71	10%	-1.1	-2.2	1	-1.4	-0.1
COc1ccc(Cl)cc1N(CC(=O)Nc1ccccc1C(=O)N1CCCC1)S(C)(=O)=O	0.65	0%	0.5	-2.8	0	2.0	0.6
COc1ccc(Cc2nc3ccccc3n2C)cc1	0.69	x	0.2	3.6	-11	-0.3	-0.2
COc1ccc2c(/C=N/Nc3ccc(C(=O)O)cc3)c[nH]c2c1	x	1%	-6.5	-6.1	9	52*	x
Cc1ccc(C(=O)NC2CCCc3ccccc32)o1 (stereo not given)	0.74	-5%	0.3	-4.2	0	-4.4	2.5
CCOC(=O)c1cnc(C(F)(F)F)nc1Oc1ccccc1	0.7	-4%	-1.1	8.9	1	-2.1	-0.3
CCCCn1c(N)c(N(CCOC)C(=O)CN(C)S(=O)(=O)c2ccc(C)cc2)c(=O)[nH]c1=O	0.7	0%	-1.0	0.1	-8	2.5	0.4
CN(CC(=O)Nc1ccccc1Cl)C(=O)CSc1nnc(N)s1	0.7	1%	-0.9	-0.5	-4	0.7	4.6
Cc1cccc(C(=O)/C=C2/c3ccccc3CC(C)(C)N2C)c1	0.72	6%	0.1	0.8	-4	-2.2	8.9
Cc1ccc2[nH]c(=O)c(COC(=O)C3CCCCC3)cc2c1	0.69	-4%	-0.1	-1.8	2	-2.3	2.8
C=CCNCc1ccccc1[N+](=O)[O-]	x	x	-0.2	5.0	-9	2.4	-2.4
CCN(CC)C(=O)c1ccc(S(=O)(=O)Cc2ccc(C)cc2)c([N+](=O)[O-])c1	0.68	-4%	2.4	2.1	-8	-7.8	0.7
Cc1nnc2n1NC(c1ccc(Cl)cc1)C(C(=O)N1CCC(C)CC1)S2 (stereo not given)	0.74	-10%	0.3	0.0	-3	0.3	-2.1
COc1ccc(N(C(=O)c2ccccc2OC)C2C=CS(=O)(=O)C2)c(OC)c1 (stereo not given)	0.71	72%	0.4	1.4	7	1.0	6.4
CCc1ccccc1OCC(=O)Nc1ccc(F)c(S(=O)(=O)N2CCOCC2)c1	0.66	3%	x	x	-5	5.1	3.2
COc1ccccc1CNC(=O)Cc1ccc(Br)cc1	0.67	x	0.7	-4.6	-3	-0.1	3.8
CCOC(=O)C1(Cc2cccc(OC)c2)CCN(CC(O)CO)CC1 (stereo not given)	0.72	11%	-0.6	-3.1	9	5.4	2.5
COc1ccccc1-c1nc(SCC(=O)N(C)c2ccccc2)c2c(=O)n(C)c(=O)n(C)c2n1	0.72	-23%	-0.2	2.3	15	2.1	-1.8
